Screening results (PubChem BioAssay)
KCNQ2 inh = KCNQ2 potassium channel inhibitors, primary screen, cell-based, CHO-K1, FluxOR thallium flux, B-score (AID 2156); Potassium voltage-gated channel subfamily KQT member 2 (Rattus norvegicus), O88943; 20 min; hits give low values; only compounds with negative scores are shown here; some inactives read as strong as hits; B-score at 10 µM; hit rate 1.1% among 310,000;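 active = fluorescence ratio B-score at most minus 3 library SDs, with starting brightness B-score within 2 library SDs, cut at about -5.5 in these data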
Target sequence (O88943 whole entry, looked up): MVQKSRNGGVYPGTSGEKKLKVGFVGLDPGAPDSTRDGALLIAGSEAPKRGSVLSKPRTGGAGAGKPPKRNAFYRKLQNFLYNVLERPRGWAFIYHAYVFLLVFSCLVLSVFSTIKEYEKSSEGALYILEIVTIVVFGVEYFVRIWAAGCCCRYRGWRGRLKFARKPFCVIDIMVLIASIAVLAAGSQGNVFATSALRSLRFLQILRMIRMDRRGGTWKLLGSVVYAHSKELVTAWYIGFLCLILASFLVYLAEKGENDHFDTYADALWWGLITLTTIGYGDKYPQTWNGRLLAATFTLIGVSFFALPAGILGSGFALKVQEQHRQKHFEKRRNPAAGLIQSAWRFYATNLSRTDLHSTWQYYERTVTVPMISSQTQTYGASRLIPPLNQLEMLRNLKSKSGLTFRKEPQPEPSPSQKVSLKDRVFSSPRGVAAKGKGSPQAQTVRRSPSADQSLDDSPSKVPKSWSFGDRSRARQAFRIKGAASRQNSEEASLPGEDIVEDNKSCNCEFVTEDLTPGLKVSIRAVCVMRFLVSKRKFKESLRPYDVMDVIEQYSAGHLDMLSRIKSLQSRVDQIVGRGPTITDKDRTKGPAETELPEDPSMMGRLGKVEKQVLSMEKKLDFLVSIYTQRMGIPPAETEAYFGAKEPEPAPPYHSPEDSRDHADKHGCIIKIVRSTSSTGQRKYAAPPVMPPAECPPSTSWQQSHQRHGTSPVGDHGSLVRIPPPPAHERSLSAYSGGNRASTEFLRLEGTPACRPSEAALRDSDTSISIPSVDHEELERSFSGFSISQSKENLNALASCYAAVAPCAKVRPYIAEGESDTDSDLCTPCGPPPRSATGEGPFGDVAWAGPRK
KCNQ2 inh baseline = recorded beside KCNQ2 inh, whose call it bears; B-score; measured here: initial fluorescence intensity artifact check;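 brightness before thallium and not channel activity; 0 = typical well and far values either way flag optical interference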
Active calls of the source: *; i = inactive.

A first look, seven compounds:
SMILES | KCNQ2 inh | KCNQ2 inh baseline
O=C(CSc1ncc(-c2ccccc2)n1C1CCCC1)N1CCc2ccccc21 | i | -1.5
Cc1[nH]c2ccccc2c1/C=N\NC(=O)CNc1ccc2c(c1)OCO2 | i | -1
Cc1cccc(NS(=O)(=O)c2ccc3c(c2)NC(=O)CC(=O)N3)c1 | i | -0.23
CCOC(=O)C(=O)N(CC)C1CCS(=O)(=O)C1 (stereo not given) | i | 1.1
COc1ccccc1-c1coc2c(CN3CCN(C)CC3)c(O)ccc2c1=O | i | -1.5
CC(C)(C)NC(=O)NC(=O)COC(=O)COc1ccc(Cl)cc1Cl | i | -1.3
O=C(Nc1cnc2sccn2c1=O)c1ccccc1Cl | i | 0.68

Results, previewed entries included:
SMILES | KCNQ2 inh | KCNQ2 inh baseline
O=C(CSc1ncc(-c2ccccc2)n1C1CCCC1)N1CCc2ccccc21 | i | -1.5
Cc1[nH]c2ccccc2c1/C=N\NC(=O)CNc1ccc2c(c1)OCO2 | i | -1
Cc1cccc(NS(=O)(=O)c2ccc3c(c2)NC(=O)CC(=O)N3)c1 | i | -0.23
CCOC(=O)C(=O)N(CC)C1CCS(=O)(=O)C1 (stereo not given) | i | 1.1
COc1ccccc1-c1coc2c(CN3CCN(C)CC3)c(O)ccc2c1=O | i | -1.5
CC(C)(C)NC(=O)NC(=O)COC(=O)COc1ccc(Cl)cc1Cl | i | -1.3
O=C(Nc1cnc2sccn2c1=O)c1ccccc1Cl | i | 0.68
CCc1nnc(NS(=O)(=O)c2ccc(Nc3ccc([N+](=O)[O-])c4nonc34)cc2)s1 | i | -1.5
CCc1c(C)nc2ncnn2c1N1CCC(C(=O)NCc2cccc(OC)c2)CC1 | i | -1.1
Cc1ccc(-c2cc(C(=O)Nc3c(C#N)cnn3C)no2)cc1 | i | 0.62
CN(C)c1nc(C=C(C#N)C#N)c(Cl)n1-c1ccc(F)cc1 | i | 1.5
Cc1ccc2nc(-c3ccc(NC(=S)NC4CC(C)(C)NC(C)(C)C4)cc3)sc2c1 | i | 4.4
COc1ccc(NC(=O)c2ccco2)cc1NC(=O)c1cccc(F)c1 | i | -0.69
Cc1ccc(NC(=O)COc2coc(CN3CCN(c4ccccc4)CC3)cc2=O)cc1 | i | 0.12
COc1ccc(NS(=O)(=O)c2cc(NC(=O)c3cccs3)ccc2N2CCOCC2)cc1 | i | -0.41
CCN1CCN(c2cc(C)c3cc(NC(=S)NCCCOC)ccc3n2)CC1 | i | -0.85
Cc1ccc(-c2nn(C)c(=O)c3ccccc23)cc1CNC(=O)CN1CCOCC1 | i | 2.7
Cc1ccc(SSc2cc(C)ccc2N)c(N)c1 | i | 0.12
CCC(=O)Nc1ccc(Oc2ccc3c(c2)C(=O)NC3=O)cc1 | i | -0.06
Cc1cc(C)c(C(=O)COC(=O)Cn2c(C)csc2=O)cc1C | i | 1.1
CC1=CC(C)(C)N(C(=O)CNC2CCCCC2)c2cc(C)ccc21 | i | -0.13
Nc1c(Cl)ncnc1NCc1cccnc1 | i | 0.27
Cc1ccc(-n2c(-c3ccco3)n[nH]c2=S)cc1 | i | -0.25
Cc1cc(C2C(C#N)=C(N)Oc3n[nH]c(C)c32)c(C)s1 (stereo not given) | i | 0.18
COc1ccccc1N(C)S(=O)(=O)c1ccc(C)c(C(=O)Nc2nccs2)c1 | i | -0.34
Cc1cc(C)cc(C(=O)NCC(=O)OCC(=O)c2cc(C)n(CC(F)(F)F)c2C)c1 | i | 0.01
COC(=O)c1c(C)oc(C)c1S(=O)(=O)NCC1CC1 | i | 0.16
O=C1CC(N2CCN(c3ccccc3)CC2)C(=O)N1Cc1ccc(Cl)cc1 (stereo not given) | i | -0.01
COc1cc2c(cc1OC)C(c1cc3cc(C)ccc3[nH]c1=O)N(C(=O)c1ccco1)CC2 (stereo not given) | i | -0.47
CCOC(=O)c1nc(N2CCN(C(=O)OCC)CC2)c2c3c(sc2n1)CCCC3 | i | 1.2
COC(=O)c1cc(NC(=O)C2CC=CCC2C(=O)O)cc(C(=O)OC)c1 (stereo not given) | i | 1.1
CCN1CCN(S(=O)(=O)c2cccc3nsnc23)CC1 | i | 0.97
O=C1CC(c2ccco2)Cc2nc(Nc3nc(-c4ccccc4)c4ccccc4n3)ncc21 (stereo not given) | i | -0.16
CC(C)CC(OC(=O)c1ccco1)C(=O)NC1CCCCC1 (stereo not given) | i | -0.17
CCc1cccc(CC)c1NC(=S)NCCc1ccc(O)c(O)c1 | i | -1.4
COc1ccc(CO[C@@H]2O[C@H](CO)[C@@H](O)[C@H](O)[C@H]2NC(C)=O)cc1OC | i | 0.17
CN(CC1CCCO1)S(=O)(=O)c1ccc(C(=O)Nc2ccc([N+](=O)[O-])cc2)cc1 (stereo not given) | i | 1.4
CC(=O)Nc1ccc(NC(=O)c2ccccc2S(=O)(=O)c2ccccc2[N+](=O)[O-])cc1 | i | 1.5
Cc1ccc(OCc2nnc(SC(C)C(=O)O)n2Cc2ccccc2)cc1 (stereo not given) | i | -0.91
Cn1nnnc1SCC(=O)NCCc1ccc(Cl)cc1 | i | 2
C/C(=N\NC(=S)Nc1ccc(C)cc1)c1cccc(N)c1 | i | -0.22
CCC(=O)N(CCc1ccccc1)Cc1cc2cccc(C)c2[nH]c1=O | i | 1.4
O=[N+]([O-])c1ccc(/C=N/Nc2nc(-c3ccccc3)c3cc(Br)ccc3n2)o1 | i | -0.49
COc1cccc(OCC(=O)NNC(=S)Nc2ccc(Cl)cc2Cl)c1 | i | -1.9
Cc1cccc(CSCCNC(=O)CCSc2ccccc2)c1 | i | 0.26
Cc1cc(O)c(C2(O)C(=O)Nc3ccccc32)cc1C (stereo not given) | i | 0.05
CCOC(=O)c1ccccc1NC1c2ccccc2C(=O)N1c1cc(C)ccn1 (stereo not given) | i | -1
CCn1cc(/C=C(\NC(=O)c2ccccc2OC)C(=O)NCCCn2ccnc2)c2ccccc21 | i | 4
C(=N\Nc1nc(Nc2ccccc2)nc(N2CCCCC2)n1)/c1ccco1 | i | -1.6
Cc1cc(Cl)c(OCCCCNC(C)(C)C)c(Br)c1 | i | -0.4
COc1cc(OC)cc(-c2nc3cc(C)ccc3o2)c1 | i | -0.07
CC(C)(C)OC(=O)CNC(=O)c1[nH]cnc1C(=O)NCC(=O)OCc1ccccc1 | i | 0.72
Cc1cccc(OCC(O)CN2CCN(c3ccccn3)CC2)c1C (stereo not given) | i | 1.7
CCOc1ccccc1N(C(=O)c1snc(C(N)=O)c1N)C(C(=O)NCc1ccccc1)c1ccc(O)cc1 (stereo not given) | i | 0.5
CCOC(=O)C1CCN(C(=O)CCNC(=O)Cn2cnc3ccccc3c2=O)CC1 | i | -1.1
Cc1cc2c(ncn2Cc2ccccc2)c([N+](=O)[O-])c1C | i | 0.95
Cc1cc(C)n(Cc2cccc(C(=O)N/N=C/c3ccncc3)c2)n1 | i | 0.21
Cc1ccc(OCC(=O)Nc2cccc3nsnc23)c(C)c1 | i | 1.2
CCn1ccnc1CN(C)C(=O)c1ccc(OC2CCN(CCc3ccccc3)CC2)cc1 | i | 0.55
OC(CNCCC(c1ccccc1)c1ccccc1)COc1ccccc1 (stereo not given) | i | 0.01

Other entries:
SMILES | KCNQ2 inh | KCNQ2 inh baseline
CC(Nc1nc(-c2cccc(Br)c2)cs1)c1nc2cc(Cl)c(N3CCCCC3)cc2n1CCOCCO (stereo not given) | i | -1.4
O=C(Nc1cc(Cl)ccc1-n1cncn1)c1cccs1 | i | 1.6
CCc1cccc(NC(=S)N2CCC(c3ccccc3)C2)c1 (stereo not given) | i | 0.09
Cc1cc(-c2nc(C)c(C(=O)NNS(=O)(=O)c3ccccc3)s2)no1 | i | 0.76
COC(=O)c1ccc(CN(c2ccc(OC)cc2)S(=O)(=O)c2ccccc2)cc1 | i | -1.2
O=C(Nc1nc(-c2ccco2)c(-c2ccco2)s1)C1CCC1 | i | -0.09
CCOc1nc2cnccc2n(CC(=O)Nc2ccccc2C(=O)OC)c1=O | i | 2.2
Cc1ccccc1/C=C/C(=O)c1ccc([N+](=O)[O-])o1 | i | -1.1
COc1ccc(N(Cc2cc3cccc(C)c3[nH]c2=O)S(C)(=O)=O)cc1 | i | 0.38
COc1ccc(C2C3=C(CCCC3=O)Nc3nc(-c4cc(OC)c(OC)c(OC)c4)nn32)cc1OC (stereo not given) | i | -1
CCOc1ccccc1NC(=S)N1CCN(c2ccccc2F)CC1 | i | -0.65
CCOC(=O)C1CCCN(Cc2nc(Cc3ccccc3Cl)no2)C1 (stereo not given) | i | 0.6
COc1ccc(-c2noc(C(C)NC(=O)c3ccco3)n2)cc1OC (stereo not given) | i | 0.54
O=C(NCCOc1ccc(F)cc1)c1ccccc1SCc1ccccc1 | i | -0.79
CN(C)c1oc(/C=C/c2cccs2)nc1S(=O)(=O)c1ccccc1 | i | -1.1
Cc1[nH]c(=O)cc2ccccc12 | i | 1.1
CC1=C(C(=O)Nc2ccccc2C)C(c2cccs2)NC(=S)N1 (stereo not given) | i | 0.05
CCc1ccccc1NC1=NCC(=O)N1Cc1ccccc1 | i | 1.7
N#Cc1c2n(c3c(=O)n(Cc4ccc(Cl)cc4)cnc13)CCCCC2 | i | -1.7
NC(=O)CC(NC(=O)Cc1ccc(Cl)cc1)c1ccc(NCCc2ccccc2F)c([N+](=O)[O-])c1 (stereo not given) | i | 1.2
COC(=O)C1CN(C(=O)C(C)Oc2ccccc2Cl)c2ccccc2O1 (stereo not given) | i | -2.5
Cc1ccc(NC(=O)C(c2ccccc2)N(C)C)cc1Cl (stereo not given) | i | 0.68
COc1ccccc1N1CCN(C(=O)C2CCN(S(=O)(=O)c3ccccc3)CC2)CC1 | i | -0.19
C=CCN1C(=O)C(Cc2ccc(F)cc2)S/C1=N/N=C/c1ccco1 (stereo not given) | i | 1.4
O=C(O)c1ccc2c(c1)C(=O)N(c1cccc(S(=O)(=O)Nc3cccc(C(F)(F)F)c3)c1)C2=O | i | 1.3
COc1ccccc1OCCn1c(=O)n(C)c2ccccc21 | i | -1
Cc1ccc(S(=O)(=O)NCCc2cn3nc(C)c(C)nc3n2)cc1C | i | -1.3
CCOC(=O)C1=C(N)N2C(=O)C(C)SC2=C(C(=O)OCC)C1c1ccccc1 (stereo not given) | i | 0.82
Nc1nnc(CSCc2ccc(F)cc2)s1 | i | -1.3
Cc1nn2c(NCCCN(C)C)c3c(nc2c1-c1ccccc1)CCC3 | i | -1.7
Cc1ccc(N2C(=O)CC(N3CCc4ccccc43)C2=O)cc1Cl (stereo not given) | i | 2.8
CCCCN(C(=O)c1cccc2c(=O)c(C)c(-c3ccccc3)oc12)c1ccccc1 | i | 1.2
CS(=O)(=O)N1CCN(c2ccccc2NC(=O)CSc2ccc(Cl)cc2)CC1 | i | 1.9
CCN(Cc1cnn(C)c1)C(=O)c1cc(COc2cc(C)c(Cl)c(C)c2)on1 | i | -1.2
COc1ccc(/C=N\Nc2ccc([N+](=O)[O-])cc2)c(C(=O)O)c1OC | i | -0.38
COc1ccccc1NCC(=O)NNC(C)C(=O)Nc1cccc(Cl)c1 (stereo not given) | i | 1.3
Cc1cccc(NC(=O)c2nc(-c3ccccc3)n(-c3ccccc3)n2)c1C | -8.2* | -0.05*
O=C(Nc1ccc2c(c1)OCCO2)C1CC1c1ccccc1 (stereo not given) | i | 1.7
CCOC(=O)c1c(NC(=O)CSc2nc3ccccc3o2)sc(C)c1C | i | -1
CC1CCCCN1S(=O)(=O)c1ccc2c(c1)CCN2C(=O)C1CC1 (stereo not given) | i | -0.87
CCC(C)C(=O)Nc1nc(C)c(-c2csc(Nc3cc(Cl)ccc3OC)n2)s1 (stereo not given) | i | -0.14
COc1ccccc1/C=C/C(=O)OCC(=O)NNC(=O)c1ccccc1 | i | 0.04
CCOC(=O)c1oc2ccccc2c1NC(=O)C(C)(C)C | i | 0.12
Cn1c(=O)c2c(nc(Sc3ncnn3CC(=O)NC(C)(C)C)n2C)n(C)c1=O | i | 0.14
O=C(CNS(=O)(=O)c1ccccc1)N1CCc2ccccc2C1 | i | 1.2
Cc1ccc(S(=O)(=O)N2CCN(C(=O)C3COc4ccccc4O3)CC2)cc1C (stereo not given) | i | 1.3
Cc1cc(C)c2nc(Cl)c(CN(Cc3ccco3)C(=O)Nc3ccccc3C)cc2c1 | i | 0.69
Cc1ccc(-c2csc3nc(CN(C)Cc4ccccc4)[nH]c(=O)c23)cc1 | i | 0.16
CN(C(=O)c1ccc2c(c1)C(=O)N(CCC1=CCCCC1)C2=O)C1CCCCC1 | i | 1.1
CCCc1cc(=O)oc2cc(C)cc(OCC(=O)Nc3ccccn3)c12 | i | 1.8
O=C(O)Cn1cnc2c(=S)nc[nH]c21 | i | -0.07
Cc1ccc(S(=O)(=O)N/N=C\c2ccc([N+](=O)[O-])o2)cc1C | i | 0.54
Cc1nc(NCc2ccc(S(N)(=O)=O)cc2)c2c(C)c(C)sc2n1 | i | 0.28
CCCC(=O)NC(=S)Nc1cccc(NC(=O)c2ccccc2Cl)c1 | i | 1.2
CCCn1c(SCC(=O)N2c3ccccc3Sc3ccccc32)nc2ccccc21 | i | -0.86
Cc1cc(C)cc(NC(=O)CCN2CCCC2)c1 | i | -2.1

Compound profiles, as listed above. Screens in order: KCNQ2 inh	KCNQ2 inh baseline
Profile of `Cc1nc(NCc2ccc(S(N)(=O)=O)cc2)c2c(C)c(C)sc2n1` → i	0.28
Profile of `CN(C(=O)c1ccc2c(c1)C(=O)N(CCC1=CCCCC1)C2=O)C1CCCCC1` → i	1.1
Profile of `CCCn1c(SCC(=O)N2c3ccccc3Sc3ccccc32)nc2ccccc21` → i	-0.86
Profile of `Cc1cc(C)cc(NC(=O)CCN2CCCC2)c1` → i	-2.1

An excerpt, so the mix of outcomes need not match the whole.
